Source: PubChem
HNF4A DNA FP: change in binding of human HNF4 alpha to DNA | AID 1224865 | activity change, % at 10 µM | HNF4a-FITC DNA binding, fluorescence polarization, 1 h | P41235 | 0.3% of 360,000 active; in the data active means activity change above about 30%, passing the limit was not always enough;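 further: controls were the assay level and a saturating level of protein; the project sought stronger binding though the title names inhibitors; some compounds called inactive have numbers as strong as hits; positive values seem to mean higher polarization but the record does not say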
Vif A3G: HIV-1 Vif–A3G interaction blockers – biochemical, TR-FRET, GST-Vif 1-94, biotin-A3G peptide, dose response retest, primary screen (AID 1117319); TR-FRET GST-Vif / biotin-A3G peptide binding; higher % means a stronger effect; test concentration not given here; strong numbers were not always called active; inhibition, %; hits with a dose series show IC50 in µM; 0.57% of 260,000 active;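 active means above the screen mean plus three standard deviations and confirmed in dose response; inconclusive means results disagree or hit not tested in dose response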;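 further: Vif residues 1-94 fused to GST binding biotinylated APOBEC3G peptide 110-148; 0% = full assay without inhibitor and 100% = GST in place of GST-Vif; retest series ran down from 100 µM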
ALR inh: human ALR oxidase inhibition via reduced H2O2 | AID 485317 | purified ALR, DTT oxidation, H2O2 HRP-luminol luminescence | inhibition, % (concentration not given with the values) | 3.8% of 290,000 active | P55789;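 active means mean and each replicate at 75% or more; inconclusive means only one of the two met; inactive means neither met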;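 further: stock transfer was 7.5 nL into about 7.5 µL; 0% = neutral wells and 100% = wells with inactivated enzyme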
Target sequence (P55789 whole entry, looked up): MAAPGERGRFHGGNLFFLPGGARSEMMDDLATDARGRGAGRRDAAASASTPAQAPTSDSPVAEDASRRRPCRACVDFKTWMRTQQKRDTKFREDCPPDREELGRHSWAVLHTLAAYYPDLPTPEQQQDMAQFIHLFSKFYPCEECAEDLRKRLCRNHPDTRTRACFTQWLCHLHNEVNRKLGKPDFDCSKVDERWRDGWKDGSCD
FGF22 binding: binders of recombinant human FGF22 by thermal shift; Q9HCT0; SYPRO orange fluorescence; percent of sucrose octasulfate shift, DMSO zero; calls only at 9.99 µM; 1.5% of 340,000 active; AID 651658;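 active means melting point raised past a set limit in the mean and every replicate; inconclusive means no clear call; three in four hits are not shown here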
Target sequence (Q9HCT0 whole entry, looked up): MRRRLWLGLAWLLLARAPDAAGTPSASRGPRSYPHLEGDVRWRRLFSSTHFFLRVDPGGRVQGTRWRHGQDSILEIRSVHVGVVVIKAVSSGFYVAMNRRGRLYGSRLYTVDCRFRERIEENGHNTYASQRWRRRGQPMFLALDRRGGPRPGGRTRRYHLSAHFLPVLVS
E coli growth: E. coli growth inhibition | Escherichia coli growth, OD600, 23 h; hits give low values | OD600 absorbance (concentration not given with the values) | 0.21% of 330,000 active;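 active means OD600 absorbance below the run mean of sample wells minus 3.6 SD, in any replicate, cut at about 0.56 in these data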;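 further: stock transfer was 300 nL into about 60 µL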
MLL AF4-AF9 inh: MLL-AF4/AF9 protein interaction inhibition; P42568; inhibition, % at 10 µM; 0.47% of 350,000 active; AID 651704; AlphaScreen, biotin-AF4 peptide binding to FLAG-AF9;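 active means every replicate reaching a set inhibition limit, whatever the replicate mean, cut at about 25% in these data; inconclusive means mean inhibition reaches that limit but some replicates miss it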;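 further: 0% = plate neutral control median and 100% = total signal loss; the record names both 10 and 1 µM as test concentration; the first replicate is given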
Target sequence (P42568 whole entry, looked up): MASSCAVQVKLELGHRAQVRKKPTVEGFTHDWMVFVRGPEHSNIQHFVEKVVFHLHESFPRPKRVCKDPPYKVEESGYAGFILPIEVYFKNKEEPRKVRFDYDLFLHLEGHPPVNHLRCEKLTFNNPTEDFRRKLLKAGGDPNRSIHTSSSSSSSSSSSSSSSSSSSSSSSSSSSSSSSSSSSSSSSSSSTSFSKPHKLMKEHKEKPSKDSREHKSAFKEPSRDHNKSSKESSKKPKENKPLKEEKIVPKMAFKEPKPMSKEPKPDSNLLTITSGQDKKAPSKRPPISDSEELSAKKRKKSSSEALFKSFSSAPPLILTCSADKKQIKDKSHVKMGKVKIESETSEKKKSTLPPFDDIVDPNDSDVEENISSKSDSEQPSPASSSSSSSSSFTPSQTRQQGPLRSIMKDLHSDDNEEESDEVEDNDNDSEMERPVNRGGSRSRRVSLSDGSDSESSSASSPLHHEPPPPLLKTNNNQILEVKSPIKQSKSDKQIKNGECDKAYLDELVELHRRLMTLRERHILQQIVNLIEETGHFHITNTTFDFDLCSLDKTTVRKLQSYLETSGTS
rRNA inh HTS: selective bacterial rRNA inhibition in E. coli | 1.6% of 350,000 active | GFP signal change (wild-type ribosome), % (test concentration not listed) | E. coli WT GFP vs humanized-ribosome RFP mutants, fluorescence, 24 h; hits give low values; DMSO median 0, no signal -100;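 active means significant combined selectivity score with lowered wild-type GFP, culture density cut under 30%, mutant RFP and density less affected; inactive means any of these conditions unmet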; further: one replicate is shown; some compounds called inactive have numbers as strong as hits
rRNA inh HTS OD600: second read-out of rRNA inh HTS, no call of its own (marks repeat the call); OD600 change, %; measured here: OD600 growth;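 optical density of the mix in the first replicate; 0 = DMSO median and -100 = no signal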
rRNA inh HTS RFP: further read-out of rRNA inh HTS, marked with its call; RFP signal change, %; measured here: RFP humanized mutant strains;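 first replicate; 0 = DMSO median and -100 = no signal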
Active calls of the source: *; i = inactive; ? = inconclusive; . = not tested or not shown; & = joins results of further samples.

SMILES	MLL AF4-AF9 inh	rRNA inh HTS OD600	HNF4A DNA FP	rRNA inh HTS RFP	rRNA inh HTS	Vif A3G	E coli growth	FGF22 binding	ALR inh
CC(C)(C)c1ccc(Cn2cnc(-c3ccc([N+](=O)[O-])cc3)c2)cc1	7.7	1	-0.3	-8.7	-4	-14%	0.69	i	-6
COc1ccc(-c2nc(-c3ccccc3)nc(Cl)c2C#N)cc1	.	.	-0.2	.	.	-8%	0.71	.	-7
O=C1C=C(c2ccccc2)OC(c2ccccc2)O1 (centres undefined)	-0.8	0	6.3	-2.7	1	.	0.74	i	12
O=C1CCCc2oc3c(cc(NS(=O)(=O)c4ccc5c6c(cccc46)C(=O)N5)c4ccccc43)c21	-6.1	-18	1.5	18	-23	?	0.7	i	-29
CCOC(=O)c1cncc(C#CCOC(=O)Nc2ccc(OC(F)(F)F)cc2)c1	-2.6	12	-3.3	0.5	15	.	0.67	i	-3
COc1ccc(CCN(Cc2cc3cc(C)c(C)cc3nc2Cl)C(=O)C2CC2)cc1	.	.	-4.3	.	.	2%	0.75	.	10
Cc1noc(C)c1NC(=O)N(C)C[C@@H]1Oc2ccc(NC(=O)Cc3ccccc3)cc2C(=O)N([C@@H](C)CO)C[C@@H]1C	0.5	-1	.	-1.3	3	.	.	i	.
Cc1ccc(-c2cnc3c(c2)C(=O)N([C@H](C)CO)C[C@H](C)[C@@H](CN(C)C(=O)Cc2ccncc2)O3)cc1	0.2	4	.	1.6	-3	.	.	i	.
C=C[C@@H]1c2cccc(C)c2N(S(=O)(=O)c2ccc(C)cc2)[C@H](c2ccc(OC(C)=O)cc2)C1(C#N)C#N	-1.0	10	12	-1.0	9	.	.	i	-10
CCCCN(CC(=O)Nc1cccc(S(=O)(=O)N2CCCC2)c1)Cc1nc2ccccc2c(=O)[nH]1	1.5	-3	1.2	5.1	-2	-3%	0.73	i	.
C/C=C/c1ccc2c(c1)O[C@@H](CN(C)C(=O)c1cnccn1)[C@H](C)CN([C@H](C)CO)S2(=O)=O	-2.6	-3	.	-0.6	-1	.	.	i	.
CC1(c2ccc(Cl)cc2)NC(=O)N(CC(=O)c2ccc3c(c2)OCO3)C1=O (centres undefined)	0.7	-18	-0.6	4.3	-22	.	0.73	i	-6
CCc1cccc(N(C(=O)c2csnn2)C(C(=O)NC2CCCCC2)c2ccncc2)c1 (centres undefined)	3.6	.	3.2	.	.	-5%	0.66	i	-8
O=C(CCCN1C(=O)c2ccccc2C1=O)Nc1nc2ccccc2[nH]1	4.3	6	0.4	-5.4	5	11%	0.69	i	.
CC1CCCCN1C(=O)CSc1nc(N)cc(=O)[nH]1 (centres undefined)	.	.	-1.4	.	.	-6%	0.79	.	18
C[C@@H]1CN([C@H](C)CO)C(=O)c2cc(NS(=O)(=O)c3ccccc3)ccc2O[C@@H](C)CCCCO[C@@H]1CN(C)CC1CC1	4.7	12	.	-2.8	5	.	.	i	.
O=C(COC(=O)CNS(=O)(=O)c1ccccc1)Nc1ncc(Cl)cc1Cl	-1.7	6	-4.6	0.9	10	3%	0.66	i	0
C[C@@H]1CN([C@@H](C)CO)C(=O)Cc2cc(NC(=O)Cc3ccccc3)ccc2O[C@H]1CN(C)Cc1ccc(C(F)(F)F)cc1	4.2	-1	.	8.8	0	.	.	i	.
C[C@H](CO)N1C[C@H](C)[C@H](CN(C)Cc2ccc(Oc3ccccc3)cc2)Oc2ccc(NC(=O)CCCCCC(=O)Nc3ccccc3N)cc2CC1=O	1.6	-6	.	1.6	-5	.	.	i	.
Cc1nnc(-c2ccccc2)nc1N(C)C	-2.7	2	-1.1	-7.2	7	5%	0.67	i	-18
COc1ccc(CN(C)S(=O)(=O)c2nnc(NC(=O)c3cccc(F)c3)s2)cc1OC	-2.5	11	2.1	1.2	3	-12%	0.69	i	1
Cc1ccc(CN2CCNC(=O)C2CC(=O)NCCCn2nnc3ccccc32)cc1 (centres undefined)	3.8	-1	-2.3	-1.8	2	0%	.	i	.
C=CCCC(=O)N1CCCC(C(=O)c2cccc(OC)c2)C1 (centres undefined)	4.5	3	-1.3	1.9	8	.	0.69	i	.
O=C(COC(=O)CCC(=O)c1ccccc1)NCCc1ccccc1	-1.3	-2	4.3	2.5	3	1%	0.7	i	-1
Cc1noc(C)c1NC(=O)N(C)C[C@@H]1Oc2ncc(Br)cc2C(=O)N([C@@H](C)CO)C[C@H]1C	-1.6&-3.6	3&6	-1.8	0.9&-1.9	9&5	-1%	.	i	.
O=C(NC(=S)NC1CCCc2ccccc21)c1ccco1 (centres undefined)	-2.1	-62	5.3	10	-40	4%	0.66	.	-2
COc1cc(C2CC(=O)Nc3cc(C)c(C)cc32)cc(OC)c1OC (centres undefined)	.	.	1.1	.	.	-10%	0.67	.	.
N#Cc1ccc(C(C(=O)NC2CCCCC2)n2c(=O)c(-c3ccco3)nc3ccccc32)cc1 (centres undefined)	.	18	19	3.9	13	.	.	i	.
Cc1noc(C)c1NC(=O)N(C)C[C@H]1Oc2ccc(NS(=O)(=O)c3cccs3)cc2C(=O)N([C@@H](C)CO)C[C@@H]1C	-11	11	.	0.2	1	.	.	i	.
CCOc1c2ccc(C(=O)NC3CCCc4ccccc43)cc2nn1C (centres undefined)	-0.2	-17	-2.6	6.8	-15	33%	0.66	i	-7
O=C(O)C(=Cc1ccnc2ccccc12)C(=O)O	-48	-13	0.3	-2.1	-16	10%	.	i	.
COc1ccc2cc(C(=O)C3CCCN(C(=O)C4=NN(C)C(=O)CC4)C3)ccc2c1 (centres undefined)	-0.6	-20*	0.6	-4.3*	-26*	.	0.7	i	-8
Cc1ccc(/C=C/C(=O)NCc2cccs2)c(C)c1	-2.0	10	-3.4	3.6	9	-2%	0.71	i	-2
CCC(C)N(C(=O)COC(=O)c1nc2nc(C)cc(C)n2n1)C1CCS(=O)(=O)C1 (centres undefined)	-14	16	1.2	-0.3	12	4%	0.64	i	-10
COc1ccc(OC)c(S(=O)(=O)NCc2ccccc2)c1	.	.	-1.1	.	.	6%	0.69	.	-6
Cc1cc(C)c(NC(=O)CNC(=O)COC(=O)Cc2ccccc2C)c(C)c1	-0.5	2	-1.9	1.7	-1	-8%	0.71	i	2
COc1ccc(C)cc1NC(=O)CSc1nnc2ccc(-c3cccnc3)nn12	-2.5	-3	3.0	-2.4	7	0%	0.64	i	-19
O=C(NCC1COc2ccccc2O1)c1ccc(NC(=O)C2CCCO2)cc1 (centres undefined)	.	.	-1.5	.	.	5%	0.67	.	2
S=C(Nc1ccc(Oc2ccccc2)cc1)N1CCOCC1	2.4	-1	1.9	0.9	0	-10%	0.67	i	-11
C[C@H](NC(=O)C[C@H]1C[C@@H]2c3cc(NC(=O)C4CCC4)ccc3O[C@@H]2[C@@H](CO)O1)c1ccccc1	1.6	2	.	2.6	-9	.	.	i	.
Cc1ccc(S(=O)(=O)Nc2ccc3c(c2)C(=O)N([C@@H](C)CO)C[C@H](C)[C@@H](CN(C)C(=O)NC(C)C)OCCCC[C@@H](C)O3)cc1	-1.1	7	.	1.6	4	.	.	i	.
Cc1cccc(OCC(=O)Nc2ccc(C(=O)O)cc2NC(=O)COc2cccc(C)c2)c1	-0.1	-15	-4.4	-4.9	-9	.	0.69	i	15
O=C(Nc1ccc2c(c1)OCO2)c1cc(C2CCCCN2C(=O)c2ccccc2)on1 (centres undefined)	0.4	-9	0.0	6.4	-5	.	.	i	.
O=C(O)[C@H]1[C@H](CO)[C@H]2Cn3c(ccc(-c4ccccc4)c3=O)[C@H]2N1CCc1ccccc1	-1.1	7	.	-1.0	1	.	.	i	.
Cc1cccc(C(=O)OCC(=O)NCc2ccc(Cl)cc2)c1	-1.2	10	-1.1	-0.9	2	-2%	.	i	.
Cc1ccccc1NC(=O)c1cc(=O)c2ccccc2o1	.	.	0.8	.	.	2%	0.67	.	-5
Cc1ccc(CNC(=O)C2CCCN(S(=O)(=O)c3c(C)noc3/C=C/N(C)C)C2)cc1 (centres undefined)	-5.6	6	3.0	0.8	9	.	0.66	i	2
COc1cccc(-c2ccc([C@@H]3[C@@H](C#N)N(C(=O)c4ccccn4)[C@@H]3CO)cc2)c1	0.7	-21	.	-3.4	-10	.	.	i	.
O=C(Nc1nc2ccccc2s1)c1ccc2sc([C@H]3C[C@H](O)[C@@H](CO)O3)nc2c1	0.4	8	-0.9	6.2	-9	.	.	i	.
O=C(COC(=O)/C=C/c1ccc(F)cc1)NC1CCCC1	0.2	9	-2.5	-1.7	5	-1%	0.67	i	.

Following part:
SMILES	MLL AF4-AF9 inh	rRNA inh HTS OD600	HNF4A DNA FP	rRNA inh HTS RFP	rRNA inh HTS	Vif A3G	E coli growth	FGF22 binding	ALR inh
c1cc(CNCCCN2CCOCC2)ccn1	.	.	-0.4	.	.	-3%	0.66	.	-4
O=C(Nc1cccc(Cl)c1)OCCOC(=O)Nc1cccc(Cl)c1	3.4	-71	1.9	-14	-59	-1%	0.63	.	.
CCOc1ccc(CCNC(=O)COC(=O)c2cccnc2Cl)cc1OCC	-10	11	-3.0	-1.7	5	0%	0.63	i	-25
C[n+]1cc(-c2ccccc2)oc1-c1ccccc1	-0.2	14	-0.6	-0.8	10	-3%	0.66	i	-3
CO[C@H]1CN(C)C(=O)c2ccc(NC(C)=O)cc2OC[C@H](C)N(CC2CC2)C[C@@H]1C	-1.4	2	.	-1.6	2	.	.	i	.
O=C(Nc1ccccc1)OCC1COC(c2ccccc2)(c2ccccc2)O1 (centres undefined)	-0.7	.	1.1	.	.	-2%	0.66	i	.
N#CC1(c2ccccc2)CCC(=O)N1Cc1ccccc1 (centres undefined)	0.9	-5	-1.4	3.4	-2	-6%	0.62	i	3
COc1ccc(NC(=O)N(C)C[C@H]2Oc3cc(-c4ccc(C)cc4)ccc3S(=O)(=O)N([C@H](C)CO)C[C@@H]2C)cc1	3.2	-2	.	-2.3	7	.	.	i	.
CCc1nnc(NC(=O)c2ccc(COc3ccccc3)o2)s1	.	.	2.5	.	.	1%	0.7	.	0
O=C(C1CCCCC1)N1CC[C@H]2[C@H](CO)Nc3ccc(Br)cc3[C@H]21	-1.0	-19	.	-2.0	2	.	.	i	.
CN(C)C(=O)c1cn(-c2ccccc2)c(=O)c2ccccc12	.	8	1.5	-0.6	7	-1%	0.7	.	-1

By substructure: the entries above containing fluorine (4)
SMILES	MLL AF4-AF9 inh	rRNA inh HTS OD600	HNF4A DNA FP	rRNA inh HTS RFP	rRNA inh HTS	Vif A3G	E coli growth	FGF22 binding	ALR inh
CCOC(=O)c1cncc(C#CCOC(=O)Nc2ccc(OC(F)(F)F)cc2)c1	-2.6	12	-3.3	0.5	15	.	0.67	i	-3
C[C@@H]1CN([C@@H](C)CO)C(=O)Cc2cc(NC(=O)Cc3ccccc3)ccc2O[C@H]1CN(C)Cc1ccc(C(F)(F)F)cc1	4.2	-1	.	8.8	0	.	.	i	.
COc1ccc(CN(C)S(=O)(=O)c2nnc(NC(=O)c3cccc(F)c3)s2)cc1OC	-2.5	11	2.1	1.2	3	-12%	0.69	i	1
O=C(COC(=O)/C=C/c1ccc(F)cc1)NC1CCCC1	0.2	9	-2.5	-1.7	5	-1%	0.67	i	.

Not all compounds are listed; the hit share may differ from the screen's.
